Measles inh: inhibitors of measles virus growth in cells, primary screen, measles RdRp inhibitor project, cell-based, single point, HTS | infected Vero cells, GFP fluorescence, 64 h; hits give low values | z-score (no concentration beside the values) | 33,000 compounds, 0.1% hits | AID 745, 2007;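 active means z-score under -3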;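 further: score is relative to mean and SD of the compound wells of a plate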
An asterisk follows results filed as active.

Structure	Measles inh
Cc1ccc(-n2c3c(cc(C(=O)NCCc4c[nH]c5ccccc45)c2=O)C(=O)CC(C)(C)C3)cc1	-0.83
COc1cc2ccccc2cc1C(=O)Nc1ccc(Cl)cn1	-0.21
O=C(Nc1ccc(F)cc1)c1ccc2c(=O)n(Cc3cccc(Br)c3)c(=S)[nH]c2c1	1.3
COc1ccccc1NC(=O)C(=O)NCC(C)C	-1.8
Cc1ccc(C(C)C)c(OCc2nc3ccccc3n2C)c1	-0.5
COc1ccccc1NC(=O)C1=C(C)Nc2nc3ccccc3n2C1c1ccc(F)cc1 (centres undefined)	-0.8
CN(C)CCNC(=O)c1ccc2c(c1)N(Cc1ccccc1Cl)C(=O)CS2	-1.8
COc1ccc(C2(CC(N)=O)CCOC(C)(C)C2)cc1 (centres undefined)	-0.1
O=C(CCCn1c2ccccc2c(=O)c2ccccc21)Nc1ccccc1Br	0.72
COc1ccc(-n2c(SCC(=O)NCc3cccc(Cl)c3)nc3[nH]ncc3c2=O)cc1	-0.08
COc1ccc2cc([N+](=O)[O-])cnc2c1	-0.23
Cc1ccc(CN2C(=O)CCC2C(=O)NCC2CCCO2)cc1 (centres undefined)	1.1
CN(Cc1ccccc1)S(=O)(=O)c1ccc(C(=O)Nc2nnc(-c3ccc(F)cc3)o2)cc1	-0.18
COc1ccc(NC(=O)CN(c2cccc(C)c2C)S(=O)(=O)c2ccccc2)cc1Cl	2
Cc1ccc(CNC(=O)Cc2ccc(-n3c(=S)[nH]c4ccccc4c3=O)cc2)cc1	1.3
FC(F)Oc1ccccc1C1CC(c2ccc(Br)cc2)Nc2nnnn21 (centres undefined)	-0.09
O=C(NCCN1CCOCC1)c1cc2c(=O)n3ccccc3nc2s1	1.6
CCOC(=O)CNC(=O)Cn1cnc2sc(C)c(S(=O)(=O)N3CC(C)CC(C)C3)c2c1=O (centres undefined)	-1.3
C=C(C)Cn1c(CCCO)nc2ccccc21	0.73
CC1=Nc2ccccc2N=C(NC(=O)CSc2nc3ccccc3s2)C1c1ccccc1 (centres undefined)	-0.16
O=C1C(=O)N(Cc2ccccc2Cl)c2ccccc21	0.02
CCOC(=O)c1[nH]c2ccccc2c1NC(=O)c1c(-c2ccccc2Cl)noc1C	-0.69
CC(NC(=O)c1cc2nc(-c3ccc([N+](=O)[O-])cc3)cc(C(F)(F)F)n2n1)c1ccccc1 (centres undefined)	-0.45
Cc1ccccc1N1C(=O)C(Cl)=C(c2ccc(Cl)cc2)C1=O	-1.3
Cc1ccc(NC(=O)CSc2nnc3cc(C)c4ccccc4n23)cc1C	-1.4
CC(=O)Nc1ccc(N2C(=O)c3ccc(C(=O)O)cc3C2=O)cc1	1.3
CCOc1ccc(N2C(=O)CC(Cc3ccc(Br)cc3)C2=O)cc1 (centres undefined)	0.01
Cc1cc(N)c(O)c(-n2nc3ccccc3n2)c1	1.7
CC(=O)N1CCc2cc(Br)cc(S(=O)(=O)CCC(=O)Nc3cccc(C(F)(F)F)c3)c21	0.27
Cc1ccc(CCN2CC(C(=O)N3CCN(c4ccc(F)cc4)CC3)CC2=O)cc1 (centres undefined)	-0.09
COc1cc(OC)cc(-n2nc(C(=O)N3CCN(c4cccc(Cl)c4)CC3)c3ccccc3c2=O)c1	-0.78
CCSc1oc(-c2ccccc2)nc1S(=O)(=O)c1ccccc1	0.56
COc1ccc(S(=O)(=O)N2CCN(Cc3cc(Br)ccc3OC)CC2)cc1	0.09
C=CCN1C(=O)CC(C(=O)Nc2ccc(C(=O)OC)cc2)SC1=Nc1ccc(Cl)cc1 (centres undefined)	2.6
Cc1ccc(OC(=O)COc2ccc(Cl)cc2)cc1C	0.1
O=C(CCCCCN1C(=O)c2ccccc2C1=O)Nc1cccc([N+](=O)[O-])c1	0.39
CCOC(=O)C1=C(C)NC2=C(C(=O)CCC2)C1c1ccc(OC(C)=O)c(OC)c1 (centres undefined)	-0.57
O=C1C2C3c4ccccc4C(C(=O)O)(c4ccccc43)C2C(=O)N1c1ccccc1Cl (centres undefined)	-0.65
O=C(NC1CCCC1)C1c2ccccc2C(=O)N1Cc1ccccc1Cl (centres undefined)	-0.33
CCOc1cc2c(cc1OCC)C1C(C(=O)NCCC(C)C)c3ccccc3C(=O)N1CC2 (centres undefined)	0.76
Cc1ccc(S(=O)(=O)c2ccc3c4c(cccc24)NC=N3)cc1	1.7
CC(C)(C)C(=O)Cn1c(NCCCO)nc2ccccc21	-0.22
CCOc1cc2[nH]c(=S)n(CCCC(=O)N3CCCCCC3)c(=O)c2cc1OCC	-0.26
Cc1cc(OCC(=O)Nc2cccc(F)c2)ccc1Br	0.87
Cc1ccc(-n2c(Cc3ccccc3)nc3c(cnn3-c3ccccc3)c2=O)cc1C	0.11
O=C(CCC1CCCCC1)Nc1ccc(S(=O)(=O)Nc2ncccn2)cc1	-0.45
Cc1cc(C)cc(OCC(=O)NCCc2nc3ccccc3[nH]2)c1	-0.43
COc1ccccc1NC(=O)Cn1cnc2sc(C(=O)N3CCOCC3)c(C)c2c1=O	0.08
CC1=CN2C(=NC(=O)CC2(C)C(=O)NC2CCC(C)CC2)C=C1 (centres undefined)	1.6
COc1cccc(NC(=O)CCCCCN2C(=O)c3cccc([N+](=O)[O-])c3C2=O)c1	-0.55

Other structures follow:
Structure	Measles inh
CN(C(=O)Cn1ncc2c(=O)oc3ccccc3c21)c1ccc(Br)cc1	1.1
CNS(=O)(=O)c1ccc(N2C(=O)c3cc([N+](=O)[O-])cc4cc([N+](=O)[O-])cc(c34)C2=O)cc1	1.1
COc1ccc(CCNC(=O)c2cn(CC(C)C)c(=O)c3c2c2ccccc2n3C)cc1OC	-0.25
O=C1c2[nH]nc(-c3ccc(Br)cc3)c2C(c2cccs2)N1c1ccc(Cl)cc1 (centres undefined)	1.2
CCOc1ccccc1NC(=O)Cn1c(=O)n(-c2ccccc2)c(=O)c2c(C)c(C(=O)N(C)C)sc21	-1
Cc1ccc(OCCn2c(=N)n(CCO)c3ccccc32)cc1	-0.08
C=CCNC(=O)c1ccc2snnc2c1	0.68
COc1cc(OC)c(OC)cc1CN1CCN(Cc2ccccn2)CC1	0
Cc1nc(S(=O)(=O)N(C)Cc2ccccc2)c(C#N)c(C)c1Cl	-0.07
O=C(O)c1cc(-c2cn[nH]c2-c2ccccc2)nc2ccc3ccccc3c12	0.96
COc1ccc(C2C(C(=O)N(C)Cc3ccccc3)c3ccccc3C(=O)N2Cc2ccc(F)cc2)cc1 (centres undefined)	-0.59
O=C(NCc1ccccc1P(=O)(c1ccccc1)c1ccccc1)c1ccco1	0.44
CC(=O)NCC(=O)N(c1ccccc1)C1(C(=O)Nc2c(C)cccc2C)CCCCC1	0.43
CCc1ccc(NC(=O)c2ccc(F)c(S(=O)(=O)NCCc3ccccc3)c2)cc1	-0.68
NC(=O)CC(NSc1ccccc1[N+](=O)[O-])C(=O)O (centres undefined)	1.1
CC1=C(C(=O)OC(C)C)C(c2cc3c(cc2[N+](=O)[O-])OCO3)C2=C(CC(C)(C)CC2=O)N1 (centres undefined)	-0.77
CCOC(=O)CNC(=O)c1ccc(C)c([N+](=O)[O-])c1	-0.36
COc1ccccc1-c1nnc(NC(=O)Nc2ccccc2)s1	2.7
Cc1ccc(CNS(=O)(=O)c2cc(Br)cc3c2N(C(=O)C2CC2)CC3)o1	-0.39
CCCS(=O)(=O)c1c(S(=O)(=O)CCC)c2cc(-c3ccncc3)ccn2c1C(=O)c1ccc(Br)cc1	-0.67
COc1cc(C2C(C(=O)OCCOc3ccccc3)=C(C)NC3=C2C(=O)CC(C)(C)C3)cc(Br)c1O (centres undefined)	-1.1
COc1ccc(-c2c(C)n([O-])c(C)c(C)[n+]2=O)cc1OC	0.7
CCCn1c(=S)[nH]c2cc(C(=O)N3CCCC(C)C3)ccc2c1=O (centres undefined)	-1.2
Cc1ccc(N2C(=O)NC3CC2(C)Oc2ccc(Br)cc23)cc1 (centres undefined)	-0.53
CN(C1CCCCC1)S(=O)(=O)c1ccc(C(=O)Nc2nc3c(s2)Cc2ccccc2-3)cc1	-0.11
COc1ccc(C2CC(=O)C3=C(C2)Nc2ccccc2NC3c2cc3c(cc2Cl)OCO3)cc1 (centres undefined)	1.8
CCOc1ccc2nc(NC(=O)Cc3ccc(OC)cc3)sc2c1	1.6
Cc1ccc(C(=O)N2CCN(S(C)(=O)=O)C2)cc1	0.7
COc1cc2c(cc1OC)C1C(C(=O)N3CCCC3)c3ccccc3C(=O)N1CC2 (centres undefined)	0.53
COC(=O)c1ccc(NC(=O)c2cc3c(CO)cnc(C)c3oc2=Nc2ccc3c(c2)OCO3)cc1	-0.17
Cc1ccccc1Nc1c(-c2ccc([N+](=O)[O-])cc2)nc2cnccn12	-0.85
Cc1ccc([N+](=O)[O-])cc1N=Cc1cc2c(cc1[N+](=O)[O-])OCO2	0.21
Cc1cc(C)c(C#N)c(SCCS(=O)(=O)Cc2ccc(Cl)cc2)n1	0.2
Cc1cc(C)n2c(Br)c(CSc3nc4ccccc4s3)nc2n1	-1.1
Cc1ccc2sc(-c3ccc(NC(=O)COc4ccccc4)cc3)nc2c1	3.8
NC(=O)c1ccc(S(N)(=O)=O)o1	0.12
O=C1CNc2ccccc2N1	-0.16
CCOC(=O)c1nn(-c2ccc(C)c(Cl)c2)c(=O)c2c(N)scc12	-0.26
CCOC(=O)c1cnc2c(C)c(Cl)ccc2c1NCCN(C)C	-1.1
Cc1cccc(NC(c2ccc(F)cc2)C2CCCC2=O)c1 (centres undefined)	-0.36
CC(=O)Nc1ccc2nc(NC(=O)c3ccc(N)cc3)sc2c1	-0.54
COc1ccc(CNc2ccccn2)cc1	-0.18
C=C(C)CSc1nc2sc3c(c2c(=O)n1CC(=C)C)CC(C)(C)OC3	1.2
COc1ccccc1N1C(=O)c2cccc(NC(C)=O)c2C1=O	1.6
COc1ccc(N=c2scc(-c3ccc4c(c3)OCCO4)n2CCO)cc1	0.03
COc1cccc(-c2nn(C)c3sc(C(=O)NCc4ccco4)cc23)c1	1.3
COc1ccc(OC)c(C2C(C(=O)N(C)C)=C(C)Nc3nc4ccccc4n32)c1 (centres undefined)	-0.04
Cc1c(Br)c([N+](=O)[O-])nn1CCCC(=O)Nc1sc2c(c1C#N)CCC(C(C)(C)C)C2 (centres undefined)	0.82
CC(C)(C)C(=O)N1N=C(c2cccc(NS(C)(=O)=O)c2)CC1c1ccco1 (centres undefined)	-1.7
CC(C)c1ccc(S(=O)(=O)N2CCN(C(=O)C3CCCCC3)CC2)cc1	0.67

(continued)
Structure	Measles inh
COC(=O)C1=C(C)NC2=C(C(=O)CC(c3ccccc3Cl)C2)C1c1ccc(F)cc1 (centres undefined)	-0.38
COc1cc2c(cc1OC)C(COc1ccc(F)cc1)N(C(=O)c1ccc([N+](=O)[O-])cc1)CC2 (centres undefined)	-0.54
O=C(NCc1ccccc1Cl)c1cc2n(n1)C(C(F)(F)F)CC(c1ccc(Cl)cc1)N2 (centres undefined)	-0.37
O=C(c1ccc2c(=O)n(CCc3ccccc3)c(SCc3cccc([N+](=O)[O-])c3)nc2c1)N1CCCCC1	1.7
Cc1ccc(-n2nc3c(c2NC(=O)c2cc(Cl)ccc2[N+](=O)[O-])CSC3)cc1	-1.2
CC1=C(C(=O)OCC(Cl)(Cl)Cl)C(c2ccccc2F)NC(=O)N1 (centres undefined)	-0.66
Ic1ccc(Nc2nc(-c3cccnc3)nc3ccccc23)cc1	-1.9
COc1ccc2nc3sc(C(=O)Nc4ccccc4F)cc3cc2c1	-0.62
COc1ccc(Nc2nnc(-c3cc4c(CO)cnc(C)c4oc3=O)s2)cc1Cl	-0.16
CC1CCC(C(C)C)C(OC(=O)C[n+]2cc(-c3ccc(Cl)cc3)n3c2CCC3)C1 (centres undefined)	-1.4
CC1CC(N(C(=O)c2ccco2)c2ccccc2)c2ccccc2N1 (centres undefined)	0.16
CCOC(=O)C1=CN(c2ccc(C)c(C)c2)C=C(C(=O)OCC)C1c1cc(Br)ccc1OC	0.18
O=S(=O)(NC1CCCCC1)c1ccc(Br)s1	-2.4
Cc1cc(Nc2ccncc2)n2c(nc3ccccc32)c1C#N	-0.26
Oc1ccc(Cl)cc1-c1cc(-c2ccccc2)n[nH]1	-0.4
COc1ccc(CN=Cc2c(NCc3ccc(OC)cc3)nc3c(C)cccn3c2=O)cc1	0.03
CCN(CC)c1nc2c(c(=O)n(C)c(=O)n2C)n1CC(=O)c1cccc(OC)c1	-1
CCN(c1ccccc1)c1c([N+](=O)[O-])ccc2nonc12	-1.1
O=C(NCc1cc2cc(Cl)ccc2[nH]1)c1cnn2c(C(F)(F)F)cc(-c3ccco3)nc12	2
CCc1c(-c2ccccc2)nc2ccccc2c1C(=O)NC1CC1	-0.31
Cc1ccc(C2CC(=O)C3=C(C2)Nc2ccccc2NC3c2cccc(F)c2)cc1 (centres undefined)	-0.14
CC1CCc2sc3ncnc(N4CCN(CCOc5ccc(Cl)cc5)CC4)c3c2C1 (centres undefined)	-0.63

4 entries from above, as labelled records:
COc1ccc(CN=Cc2c(NCc3ccc(OC)cc3)nc3c(C)cccn3c2=O)cc1
  Measles inh: 0.03

CCN(CC)c1nc2c(c(=O)n(C)c(=O)n2C)n1CC(=O)c1cccc(OC)c1
  Measles inh: -1

O=C(CCCCCN1C(=O)c2ccccc2C1=O)Nc1cccc([N+](=O)[O-])c1
  Measles inh: 0.39

COc1ccc(CNc2ccccn2)cc1
  Measles inh: -0.18

The list is partial (hit frequency here may not be typical).
